# Screening results: PubChem BioAssay, National Center for Advancing Translational Sciences (NCATS)
# HPGD block: HPGD (human) dehydrogenase inhibition; P15428; purified HPGD, NADH fluorescence kinetic, PGE2 substrate; Potency, µM, for the others: at the top dose activity change, negative = inhibition, actives largely listed as inhibitors; 4.3% of 150,000 active; AID 894; active = well fitted inhibition curve with a large enough effect (not every such curve was filed as active); inconclusive = small, poorly fitted or top-dose-only effect, or another doubt; inactive = no such curve, though single readings can be large or run the other way;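 further: top concentration of the series not given in the record; plate controls included wells without enzyme; inactives centre near -10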
# Target sequence (P15428 whole entry, looked up): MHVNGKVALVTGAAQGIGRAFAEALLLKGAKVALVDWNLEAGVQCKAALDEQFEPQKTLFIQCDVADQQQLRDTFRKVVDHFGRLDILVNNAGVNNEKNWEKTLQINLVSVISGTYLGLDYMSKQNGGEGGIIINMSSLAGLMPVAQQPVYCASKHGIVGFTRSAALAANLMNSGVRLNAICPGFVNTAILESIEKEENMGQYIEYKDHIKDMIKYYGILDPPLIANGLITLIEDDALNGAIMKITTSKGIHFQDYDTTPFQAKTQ
#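 NADH formation kinetics: reaction with 30 uM PGE2 and 1 mM NAD+ (final), 20 nM enzyme, Tris-HCl pH 8 with Tween 20, after 15 min compound preincubation at room temperature. Fluorescence change, last versus first of five reads.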
# The depositor's hits bear a star; u = inconclusive. On the % scale 0 is the no-effect control and ±100 the full control effect; potency means the concentration at half of the fitted maximal effect. A portion of the library. The share of hits here may be higher or lower than overall.
HPGD block | Structure
-13.3% | CCC(O)(C#CCN1CCCCC1)CC
-3.7% | CC(=O)Oc1ccc2c(C)cc(=O)[nH]c2c1
u | CCC1CCc2c(n(C)c3ccccc3c2=O)O1 (stereo not given)
-7.2% | CC(=O)NCc1cn2c(C)csc2n1
-6.5% | CC(C)=C1C(=O)C(c2ccccc2)=C2CN3C(=O)N(CCc4ccccc4)C(=O)[C@]3(Cc3ccccc3)[C@H]21
-23.5% | NS(=O)(=O)c1cccc(NC(=S)NC(=O)C23CC4CC(CC(C4)C2)C3)c1
u | COc1ccccc1NC(=O)c1sc2ncn(Cc3cccc(C)c3)c(=O)c2c1C
-16.3% | O=C(c1cc(-c2cccs2)on1)N1CCN(c2ccc(F)cc2)CC1
-11.9% | Cc1cccc2c(CCNC(=O)c3ccc([N+](=O)[O-])cc3)c[nH]c12
-13.4% | Cc1nc(N2CCCC2C(=O)O)c2oc3ccccc3c2n1 (stereo not given)
-18.3% | CCn1c(SCC(=O)N2CCN(c3cccc(Cl)c3)CC2)nc2ccccc2c1=O
-21.6% | O=c1cc(O)nc(SCc2ccccc2Cl)[nH]1
-6.7% | CSc1c2c(nc3ncnn13)CCC2
-10.8% | O=C(c1csnn1)N1CCC2(CC1)CCN(c1ncccn1)CC2
4.4% | COC(=O)C1=C(C)N(C)C(C)=C(C(=O)OC)C1c1ccncc1
u | Cc1ccc2nc(-c3cccc(S(=O)(=O)N(C)C)c3)cn2c1
-18.0% | CC(C)c1cc(C(=O)Nc2cccc(Cl)c2)no1
-23.2% | Cc1ccc(S(=O)(=O)N2CCCC(c3nc(-c4ccc(C)o4)no3)C2)cc1 (stereo not given)
u | S=C(N=Nc1ccccc1)NNc1ccccc1
-1.6% | Cn1ncc(Cl)c1C(=O)N1CCCc2ccccc21
-6.8% | CCOC(=O)c1ccc(N2CSC3=C(C#N)C(c4cccs4)CC(=O)N3C2)cc1 (stereo not given)
-8.8% | Cc1ccc(NC(=S)NNC(=O)c2ccccc2OC(F)F)cc1
-12.7% | COc1ccc(NC(=S)NC(NC(=O)C(C)C)C(Cl)(Cl)Cl)c([N+](=O)[O-])c1 (stereo not given)
-14.7% | CCN(CC)CCC(=O)Nc1ccc2c(c1)N(C(=O)CN(CC)CC)c1ccccc1CC2
-15.6% | Fc1ccccc1N1CCN(Cc2nc(-c3ccccc3)no2)CC1
-9.7% | O=C(Nc1cccc2nsnc12)c1ccc2c(c1)OCO2
-3.0% | COc1ccc(CCN2C(=O)NC(NC(=O)CCc3ccccc3)(C(F)(F)F)C2=O)cc1OC (stereo not given)
-7.4% | c1cncc(-c2nccc(-n3ccnc3)n2)c1
-13.6% | O=C(Nc1cccnc1)c1c(O)c2cccc3c2n(c1=O)CC3
3.0% | Cn1c[n+](C)cc1/C=N/O

# Additional compounds follow:
HPGD block | Structure
-5.4% | COc1ccc(NC(=O)CC2SC(=NCC3CCCO3)NC2=O)cc1 (stereo not given)
-13.5% | Oc1c(N=Nc2ccccn2)ccc2ccccc12
10µM* | O=C(Cc1ccccc1)NCCc1cccc(Cl)c1
-3.3% | Cc1ccc(-n2c(SCc3nc4ccccc4c(=O)[nH]3)nnc2-c2ccccc2O)cc1
-11.5% | COC(=O)c1ccc(C(=O)OC)c(NC(=O)CN2CCN(c3ccc(OC)cc3)CC2)c1
u | O=C1c2cccc3cccc(c23)N1Cc1ccc(F)cc1
-2.1% | CC(C)CC(=O)Nc1ccc(S(=O)(=O)NCc2ccco2)cc1
u | O=C(c1cc2c(=O)n3ccccc3nc2s1)N1CCOCC1
-19.6% | Cc1ccc(NC(=O)CSc2nc3ccccc3c3nc(CCc4c(C)n[nH]c4C)nn23)cc1F
-16.3% | CCOC(=O)C1=NN(c2ccccc2C)C2=NC(C)=C(C(=O)OC)C(c3cccs3)N12 (stereo not given)
-11.4% | CCn1c(=O)cc(NC2=NCC(C)CN2c2cccc(Cl)c2)n(C)c1=O (stereo not given)
4.1% | CCn1c(COc2ccc(Cl)cc2)nnc1SCc1ccc(C#N)cc1
-16.9% | Oc1ccc(Nc2nc(-c3cccs3)cs2)cc1
-19.9% | Cc1oc(/N=C/c2ccccc2O)c(C#N)c1C
5.01µM* | CCn1c(=O)cc(SCC(=O)N2CCC(C)CC2)c2ccccc21
-18.2% | OC(COC(c1ccc(Cl)cc1)c1ccc(Cl)cc1)CN1CCN(c2ccccn2)CC1 (stereo not given)
0.3% | Cc1ccccc1C(=O)NCCc1nnc(SCC(=O)Nc2nc(-c3ccccc3)cs2)n1C
-11.4% | CCC(C)NC(=O)c1cc(Cl)ccc1OC (stereo not given)
u | O=C1OCCN1C(=O)[C@H]1[C@H](c2ccc(F)cc2)C(c2cccc(Cl)c2)=NN1c1ccccc1
-14.9% | CCC(C)(C)NC(=O)C(c1ccc(F)cc1)N(Cc1ccco1)C(=O)CCC(=O)Nc1ccccn1 (stereo not given)
-10.1% | Cc1cccc(C)c1N1C(=O)c2cccc([N+](=O)[O-])c2C1=O
-2.8% | Cc1c(NC(=O)C2CCCCN2S(=O)(=O)c2ccc(Cl)cc2)c(=O)n(-c2ccccc2)n1C (stereo not given)
-11.3% | CCN(CCNS(=O)(=O)c1ccc2[nH]c(=O)sc2c1)c1ccccc1
-15.8% | CCN(/C=N/c1sc2c(c1C#N)CC(C)(C)NC2(C)C)CC
-5.7% | O=C(CSc1nc2ccccc2o1)NCCOc1ccccc1
-5.2% | O[C@@H](c1cc(-c2ccc(Cl)cc2)nc2ccccc12)C1CCCCN1 (stereo not given in full)
-12.9% | CCOc1ccccc1Nc1nc(-c2sc(NC(=O)c3cccc(Cl)c3)nc2C)cs1
u | Cc1ccc(N=C2NC(=O)/C(=C/C=C/c3ccco3)S2)cc1C
3.6% | Cc1ccc(S(=O)(=O)CCc2nnc(N)s2)cc1
-0.9% | C[C@@]1(O)CCOC(=O)C1

# Some of these compounds in order of SMILES length, descending.
HPGD block | Structure
-11.5% | COC(=O)c1ccc(C(=O)OC)c(NC(=O)CN2CCN(c3ccc(OC)cc3)CC2)c1
0.3% | Cc1ccccc1C(=O)NCCc1nnc(SCC(=O)Nc2nc(-c3ccccc3)cs2)n1C
-12.9% | CCOc1ccccc1Nc1nc(-c2sc(NC(=O)c3cccc(Cl)c3)nc2C)cs1
-5.7% | O=C(CSc1nc2ccccc2o1)NCCOc1ccccc1
10µM* | O=C(Cc1ccccc1)NCCc1cccc(Cl)c1
-0.9% | C[C@@]1(O)CCOC(=O)C1

# (continued)
HPGD block | Structure
u | CC(=O)c1nc2ccccc2n1S(=O)(=O)c1ccc(Cl)cc1
u | Cc1ccc(S(=O)(=O)c2c(N)n(/N=C/c3ccco3)c3nc4ccccc4nc23)cc1C
-14.5% | CC1=NCC(C)c2c1[nH]c1ccccc21 (stereo not given)
15.8µM* | COc1ccc(S(=O)(=O)N2CCC(C(=O)N3CCCCC3)CC2)cc1Cl
-14.9% | CCC(C)NS(=O)(=O)c1ccc(OCC(=O)Nc2ccc3c(c2)OCO3)cc1 (stereo not given)
1.0% | CCC(/C=C1\Sc2ccc(OC)cc2N1CCO)=C\c1sc2ccc(OC)cc2[n+]1CCO
-21.7% | COc1cc(OC)cc(C(=O)NC2CCN(CC(=O)Nc3cccc4ccccc34)CC2)c1
-10.2% | Cc1cccc(OCC(O)Cn2c(-n3nc(C)cc3C)nc3c2c(=O)[nH]c(=O)n3C)c1 (stereo not given)
-11.1% | NC(=S)NN=C1c2cc(S(=O)(=O)N3CCOCC3)ccc2-c2ccc(S(=O)(=O)N3CCOCC3)cc21
-1.8% | CCN(CC)CCNC(=O)NC(=O)c1ccc(Cl)cc1
-17.1% | Cc1ccc(N2CCN(S(=O)(=O)c3ccc(F)cc3)CC2)c(C)c1
-4.7% | COC(=O)C(C)N1C(=O)S/C(=C/c2cc(C)n(-c3ccccn3)c2C)C1=O (stereo not given)
-8.9% | Cc1nc2c3cc(F)ccc3n(Cc3ccccc3F)c2s1
-10.0% | Cc1cc(NC(=O)CCCN2C(=O)/C(=C\c3cccs3)SC2=S)no1
-2.8% | Cc1nn(CC(=O)c2ccccc2)c(=O)c2nn(-c3ccccc3F)c(C)c12
-9.7% | O=C(NCc1ccco1)C(Cc1ccccc1)NS(=O)(=O)c1cccc2nsnc12 (stereo not given)
-10.5% | CCOC(=O)COc1ccc(S(=O)(=O)NCCC2=CCCCC2)cc1
u | N#Cc1ccc(CNc2cnccn2)cc1
-11.4% | COCCNC(=O)CS(=O)Cc1nc(-c2ccc(Cl)cc2)oc1C (stereo not given)
-25.7% | Cc1cccc2sc(NNC(=O)c3ccc(S(=O)(=O)N4CCc5ccccc5C4)cc3)nc12
u | O=S(=O)(c1ccccc1)n1ccc2ccccc21
-25.2% | Cc1ccc(-n2c(C)cc(C(=O)COC(=O)c3ccc[nH]c3=O)c2C)cc1C
-6.0% | CCn1ncc(/C=N/NC(=O)c2cc(Cl)ccc2OC)c1C
3.7% | COc1ccc(C2C(C#N)=C(N)OC3=C2C(=O)CC(C)(C)C3)cc1Cn1cc([N+](=O)[O-])cn1 (stereo not given)
-10.2% | NNC(=O)Cn1c(COc2ccc(Cl)cc2)nc2ccccc21
-19.4% | CCc1nn2c(N)c(/C=C3\C=Nc4ccccc43)c(=O)nc2s1
-9.8% | COc1ccc(CNc2nc(C)c([N+](=O)[O-])c(C)c2C#N)cc1
1.0% | Cc1nnn(C23CC4CC(CC(C4)C2)C3)n1
-3.5% | COC(=O)c1ccc(C)c(NC(=O)CCc2cc(OC)c(OC)c(OC)c2)c1
-0.3% | CCc1ccc(C(=O)COC(=O)CNC(=O)COc2ccccc2)cc1

# Carrying on:
HPGD block | Structure
u | O=c1[nH]cnc2sc(-c3ccccc3)cc12
u | Cn1ncc(C#N)c1NC(=O)c1cc(-c2ccccc2Cl)on1
-14.7% | COc1cccc(C(=O)CN(C(=O)c2ccc(Cl)cc2Cl)N2C(=O)c3ccccc3C2=O)c1
-8.3% | Cc1nc2ccccc2nc(C)c1=NOCc1ccc(Cl)cc1Cl
-13.3% | CC(Oc1ccccc1Br)C(=O)N1CCc2ccccc21 (stereo not given)
-4.9% | O=C(O)c1ccccc1CN1CCC[C@@H](C(=O)O)C1
-17.6% | Cc1ccccc1N1C(=O)c2ccccc2C1Nc1cccnc1 (stereo not given)
-23.7% | CC(C)Cn1nc(NC(=O)C2CCCO2)c2cc3ccccc3nc21 (stereo not given)
u | Cc1cc(/C=C2/NC(=O)NC2=O)c(C)n1-c1cccnc1
-15.2% | COc1ccc(/C(C#N)=C/c2c(-c3ccc(Cl)cc3)nc3c(C)cccn23)cc1
-6.4% | CC(=O)Nc1ccc(NC(=O)COC(=O)c2c(C)nn(-c3ccccc3)c2C)cc1
10µM* | CN(C)c1ccc(C=C2C(=O)OC(C)(C(C)(C)C)OC2=O)cc1 (stereo not given)
-0.7% | CC(=O)Nc1cc2c(cc1NC(=O)Cn1nc(-c3ccccc3F)ccc1=O)OCCO2
-22.4% | COc1ccc(-c2nn(CC(=O)N3CCCCC3)c(=O)c3ccccc23)cc1
-2.3% | CC(=O)Nc1ccc(-c2nn[nH]n2)cc1Cl
-16.1% | Cc1ccc(NC(=S)N/N=C/c2c(Cl)cccc2Cl)c(C)c1
-5.2% | CC(C)OC(=O)CC12CN(C)CC(CC(=O)OC(C)C)(CN(C)C1)C2=O
-16.5% | O=C(/C=C/c1ccco1)N/C(=C\c1ccco1)C(=O)NCCc1nc2ccccc2[nH]1
-17.6% | COc1cc(/C=N/N=C2/C(=O)Nc3ccccc32)ccc1O
-3.4% | CCCCCCC(=O)NC(Nc1ccc(S(N)(=O)=O)cc1)C(Cl)(Cl)Cl (stereo not given)
u | CC1CC2(CC(C)(C(=O)CSc3n[nH]c(-c4ccccc4Cl)n3)OC2=O)C(=O)O1 (stereo not given)
0.3% | CCCn1nnc(NC(=O)c2ccc(OC)cc2)n1
-13.0% | Cc1ccccc1N(CC(=O)N1CCN(c2ccccc2)CC1)S(C)(=O)=O
-5.3% | CCOC(=O)N1CCN(C(=O)CN(Cc2ccccc2)S(=O)(=O)c2ccc(OC)c(C)c2)CC1
-5.4% | CCN1C(=O)N[C@@H](c2cccc(F)c2)C(C(C)=O)=C1C
-10.7% | Cc1cc(C)n2nc(SCC#N)nc2n1
-4.5% | COc1cccc(CNC(=O)c2ccc(S(=O)(=O)N3CCCC3)cc2)c1
2.7% | O=C(C1CCCO1)N1CCc2ccccc21 (stereo not given)
-6.7% | CC1CCC(C(=O)NC(C(=O)NCCN2CCC(C)CC2)C(C)C)CC1 (stereo not given)
-8.0% | Cc1sc2ncnc(Sc3ccccc3C(=O)Nc3ccccc3Cl)c2c1C

# Other structures
HPGD block | Structure
-2.4% | COCCn1c(SCC(=O)Nc2cccc(OC)c2)nnc1-c1ccc(Cl)cc1
-19.6% | Cc1c(C(=O)N2CCN(c3ccc(F)cc3)CC2)sc2nc(-c3ccccc3)cn12
-15.9% | O=C(c1ccc(F)cc1)C1CCN(C(=S)Nc2ccccc2)CC1
-10.6% | Cc1cc(C)cc(NC(=O)c2ccccc2NC(=O)CCC(=O)O)c1
-3.3% | Cc1ccccc1NC(=O)c1ccc(S(=O)(=O)N(C)C)cc1
u | CCOC(=O)CCSc1nc(C)c2cc(OC)ccc2n1
-11.4% | CCOc1cc(CNCCSc2nnnn2C)cc(Br)c1OCc1ccc(F)cc1
u | C=CCc1ccc(O)c(-c2cc(CC=C)ccc2O)c1
-6.1% | COc1cc(CNCCc2c[nH]c3ccccc23)ccc1OCc1ccccc1F
-15.6% | Cc1cc(OCC(=O)NCCO)cc(C)c1Cl
-3.2% | O=C(Cn1cnc2ccccc2c1=O)N1CCN(Cc2ccccc2)CC1
-17.4% | CCOc1ccccc1NC(=O)CC1NCCNC1=O (stereo not given)

# Single entries from above:
# HPGD block result of Cc1cc(C)cc(NC(=O)c2ccccc2NC(=O)CCC(=O)O)c1 is entered as -10.6%
# HPGD block result of O=C(Cn1cnc2ccccc2c1=O)N1CCN(Cc2ccccc2)CC1 is entered as -3.2%

# An excerpt of these results, bar-delimited.
structure | HPGD block
CCOC(=O)CCSc1nc(C)c2cc(OC)ccc2n1 | u
CCOc1cc(CNCCSc2nnnn2C)cc(Br)c1OCc1ccc(F)cc1 | -11.4%
